# KCNQ2 block: KCNQ2 channel blockers in CHO-K1 cells – cell-based, FluxOR thallium flux, B-score, primary screen (AID 2156); 20 min; hits give low values; only compounds with negative scores are shown here; some inactives read as strong as hits; B-score at 10 µM; hit rate 1.1% among 310,000;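 active = fluorescence ratio B-score at most minus 3 library SDs, with starting brightness B-score within 2 library SDs, cut at about -5.5 in these data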
# Target sequence (O88943 whole entry, looked up): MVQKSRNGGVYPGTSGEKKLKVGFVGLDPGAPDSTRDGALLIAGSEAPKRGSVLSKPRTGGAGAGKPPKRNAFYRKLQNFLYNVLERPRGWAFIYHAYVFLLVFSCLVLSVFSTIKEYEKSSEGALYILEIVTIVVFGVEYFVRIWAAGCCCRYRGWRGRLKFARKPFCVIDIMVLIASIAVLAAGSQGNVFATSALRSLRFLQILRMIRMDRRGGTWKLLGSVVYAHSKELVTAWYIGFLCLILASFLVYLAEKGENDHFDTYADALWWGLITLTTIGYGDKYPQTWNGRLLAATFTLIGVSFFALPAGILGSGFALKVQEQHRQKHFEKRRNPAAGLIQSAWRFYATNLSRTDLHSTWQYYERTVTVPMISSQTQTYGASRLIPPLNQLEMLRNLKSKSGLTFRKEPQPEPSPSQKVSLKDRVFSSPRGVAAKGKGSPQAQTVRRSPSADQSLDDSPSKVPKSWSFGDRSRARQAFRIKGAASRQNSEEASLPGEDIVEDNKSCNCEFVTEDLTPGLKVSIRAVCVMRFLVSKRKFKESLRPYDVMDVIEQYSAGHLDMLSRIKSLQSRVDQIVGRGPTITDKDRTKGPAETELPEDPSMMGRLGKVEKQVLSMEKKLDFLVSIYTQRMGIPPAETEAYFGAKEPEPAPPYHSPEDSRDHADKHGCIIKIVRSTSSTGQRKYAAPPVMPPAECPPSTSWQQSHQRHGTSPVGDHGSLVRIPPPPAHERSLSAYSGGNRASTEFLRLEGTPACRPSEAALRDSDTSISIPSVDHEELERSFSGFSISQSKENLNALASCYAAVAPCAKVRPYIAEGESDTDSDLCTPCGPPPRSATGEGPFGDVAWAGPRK
# KCNQ2 block baseline: second read-out of KCNQ2 block, no call of its own (marks repeat the call); B-score; measured here: initial fluorescence intensity artifact check;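 brightness before thallium and not channel activity; 0 = typical well and far values either way flag optical interference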
# * hit, by the source's call; i = inactive.
item	KCNQ2 block	KCNQ2 block baseline	SMILES
1	i	0.05	Cc1onc(-c2ccccc2)c1C(=O)N1CCCSC1=Nc1ccccc1
2	i	-1.6	Cc1cccc(C)c1OCc1cc(C(=O)N2CCN(c3ccc(F)cc3)CC2)no1
3	i	-1.2	CC(NCc1cccs1)C(=O)Nc1cc(Cl)cc(Cl)c1 (configuration not stated)
4	i	1.2	CCCN(C(=O)c1cn(CC)c2nc(C)ccc2c1=O)c1c(N)n(Cc2ccccc2)c(=O)[nH]c1=O
5	i	0.22	CC(=O)NCc1ccc(-c2csc(N)n2)s1
6	i	2.7	CN(C(=O)CSC1=NCCS1)c1ccccc1
7	i	0.19	CN(Cc1ccccc1)c1ncnc2ccc(Br)cc12
8	i	0.45	Fc1ccc(Cn2nnc3ccccc32)cc1
9	i	-1.7	C=CCn1c(CSc2nc3ccccc3s2)nnc1SCC(=O)NCCN1CCOCC1
10	i	-1.6	COc1ccc(C(NCC(=O)Nc2c(C)cccc2C)c2ccccc2)cc1 (configuration not stated)
11	i	0.77	COc1ccccc1P(=O)(c1ccccc1)c1ccccc1NC(C)=O (configuration not stated)
12	i	-1.1	O=C(Oc1cccc([N+](=O)[O-])c1)C1CCN(C(=O)c2ccc(F)cc2)CC1
13	i	0.59	COc1ccc(NC(=O)CN2C(=O)NC(C)(c3ccccc3)C2=O)cc1Cl (configuration not stated)
14	i	0.83	CC(=O)Nc1ccc(Nc2nc(C)cc(C)n2)cc1
15	i	0.46	O=S1(=O)[C@H]2C[C@@H]3C=C[C@@]2(CN1Cc1cccc(Cl)c1)O3
16	i	0.32	CC(NC(=O)CSc1nc2c(c(C(F)(F)F)n1)CCc1ccccc1-2)c1ccccc1 (configuration not stated)
17	i	-1.5	Nc1cccn2c(-c3ccc(Cl)c(Cl)c3)cnc12
18	i	0.79	COc1ccc(/C=C/C(=O)N2c3ccccc3Sc3ccc(C(F)(F)F)cc32)cc1
19	i	0.47	COC(=O)c1ccc2nc(C3CCCCC3)c3c(c2c1)CCC3
20	i	0.64	COc1ccc(Cl)cc1C(=O)N/N=C/c1ccc(N2CCOCC2)cc1
21	i	-0.44	C=CCn1c(Cc2cccs2)nnc1SCC(=O)Nc1ccc(OC)cc1
22	i	-1.5	CCOc1ccc(S(=O)(=O)N(C)c2ccc(OCC(=O)NCCc3ccc(OC)cc3)cc2)cc1
23	i	0.12	CC(C(=O)NCCc1ccc(S(N)(=O)=O)cc1)N1C(=O)CC(C)(C)Sc2ccccc21 (configuration not stated)
24	i	0.32	CCn1c(SCC(=O)NC2CC2)nnc1-c1ccccn1
25	i	0.18	CCCn1c(SCC(=O)NC2CCCC2)nnc1-c1cccnc1
26	i	-0.52	Cc1ccc(N2CC(C(=O)NCCCn3ccnc3)CC2=O)cc1 (configuration not stated)
27	i	0.48	COc1ccc(N2C(=O)CCC(C(=O)N3CCCCC3)C2c2ccc(F)cc2)cc1 (configuration not stated)
28	i	0.73	C=CCn1c(=N)n(CC(=O)OC)c2ccccc21
29	i	-0.79	CCCn1cc(S(=O)(=O)c2ccc(C)cc2)c(=O)c2cc(OCC)ccc21
30	i	-0.73	O=S1(=O)c2ccccc2N=NN1Cc1ccc(Cl)cc1

# The closing 6 entries of the part before open the next one.
item	KCNQ2 block	KCNQ2 block baseline	SMILES
25	i	0.18	CCCn1c(SCC(=O)NC2CCCC2)nnc1-c1cccnc1
26	i	-0.52	Cc1ccc(N2CC(C(=O)NCCCn3ccnc3)CC2=O)cc1 (configuration not stated)
27	i	0.48	COc1ccc(N2C(=O)CCC(C(=O)N3CCCCC3)C2c2ccc(F)cc2)cc1 (configuration not stated)
28	i	0.73	C=CCn1c(=N)n(CC(=O)OC)c2ccccc21
29	i	-0.79	CCCn1cc(S(=O)(=O)c2ccc(C)cc2)c(=O)c2cc(OCC)ccc21
30	i	-0.73	O=S1(=O)c2ccccc2N=NN1Cc1ccc(Cl)cc1
31	i	0.45	CC(C)(C)n1ncc(Oc2ccccc2[N+](=O)[O-])c(Cl)c1=O
32	i	0.37	COc1ccccc1CNC(=O)COC(=O)CSc1ccc(Cl)cc1
33	i	2.4	O=C(NCc1cccc(Cl)c1)NCc1cccc(Cl)c1
34	i	1.2	CCNc1nc(Oc2ccc(C(=O)OC)cc2)nc(N2CCOCC2)n1
35	i	1.8	O=C(Nc1ccc2c(c1)CCC2)c1cnc(Cl)c(Cl)c1
36	i	-0.26	CNC(=O)c1nnsc1S(=O)c1ccc(Cl)cc1 (configuration not stated)
37	i	0.03	Cn1c(SCC(=O)N2CCCC2)nc2ccccc21
38	i	-0.02	CCOc1ccc(C(=O)Nc2ccc3c(c2)OCCO3)cc1[N+](=O)[O-]
39	i	-1.5	COc1cc(OC)nc(NC(=O)NS(=O)(=O)c2ccccc2Cl)n1
40	i	0.7	Cc1ccc(C(CNC(=O)Nc2ccc(Cl)cc2)N2CCN(C)CC2)cc1 (configuration not stated)
41	i	0.04	COc1ccc(-c2nc(SC)n(S(=O)(=O)c3ccccc3)n2)cc1
42	i	1.4	Cc1ccccc1N(C(=O)c1csnn1)C(C(=O)NC(C)(C)C)c1cccs1 (configuration not stated)
43	i	0.46	CC(=O)ONC(=Nc1ccccc1)c1nonc1N
44	i	-0.07	CCN(CC)C(=O)c1cccc2nc3ccccc3nc12
45	i	-0.01	COc1ccc(CC(=O)Nc2cc(S(=O)(=O)N3CCCCC3)ccc2C)cc1OC
46	i	9.5	CCN1CC=C2C(C#N)=C(N)C(C#N)(C#N)[C@H](c3cccc(OC)c3OC)[C@H]2C1
47	i	-1.5	COc1ccc(C(=O)NCCSCc2ccccc2Cl)cc1OC
48	i	-0.59	O=C(CC1C(=O)NCCN1Cc1ccccc1)NCCCOc1cccnc1 (configuration not stated)
49	i	-0.09	CC(=O)Nc1ccc(NC(=O)C(C)OC(=O)c2ccccc2NS(=O)(=O)c2cccs2)cc1 (configuration not stated)
50	i	-1	COc1ccc(CC(=O)OCC(=O)Nc2ccc3c(c2)OCO3)cc1
51	i	-0.8	CCOCCCNC(=O)c1ccc2c(c1)N(Cc1ccccc1)C(=O)CS2=O (configuration not stated)
52	i	-0.44	Oc1ccc(/C=N/n2c(COc3ccccc3)n[nH]c2=S)c(O)c1
53	-7.4*	-0.82*	Cc1ccc(OCC(=O)Nc2ccccc2N2CCOCC2)c(C)c1
54	i	-0.46	O=C(NCc1ccccc1Cl)C1CCN(c2cnccn2)CC1
55	i	0.64	c1ccc(-c2csc(Cc3nnc4n3CCCCC4)n2)cc1
56	i	0.33	Cc1ccc(OCC(=O)NNC(=S)NC(=O)C(C)(C)C)c(Br)c1
57	i	-0.74	CSc1ccc(-c2nc3cnccn3c2Nc2ccc3c(c2)OCO3)cc1
58	i	-0.12	CCOC(=O)C1C(=O)CC(C)(O)C(C(=O)OCC)C1c1ccc(Br)cc1 (configuration not stated)
59	i	-1.9	COc1ccccc1NC(=S)NC(=O)c1c(-c2ccccc2Cl)noc1C
60	i	1.1	O=c1[nH]cccc1-c1nc2cc(Cl)ccc2n1Cc1ccccc1
61	i	0.01	O=C(CSc1nnnn1-c1ccccc1F)Nc1nc2ccccc2s1
62	i	-2	c1ccc(OCc2nnc3sc(C4COc5ccccc5O4)nn23)cc1 (configuration not stated)
63	i	-0.4	COC(=O)c1ccc(/C=C/c2c(-c3ccc(OC)cc3)oc3ccc(N4CCOCC4)cc23)cc1
64	i	-1.2	COc1ccccc1C(=O)NCC(=O)NCCc1ccc(Cl)cc1
65	i	-0.4	Cc1cccc(-c2cc(C(=O)NCc3ccccn3)c3ccccc3n2)c1
66	i	0.13	O=[N+]([O-])c1cc(-c2ccc(/C=N/c3nc4ccccn4c3-c3ccco3)o2)ccc1Cl
67	i	-0.5	COc1ccc(C(NC(C)=O)c2nccc3cc(OC)c(OC)cc23)cc1OC (configuration not stated)
68	i	2.6	CCC(C(=O)NCc1ccco1)n1nc(C)c2c(C)n(-c3ccccc3)nc2c1=O (configuration not stated)
69	i	2.3	O=C1C(=O)N(CCS(=O)(=O)c2ccccc2)c2ccccc21
70	i	-0.52	CCCCN(Cc1ccccc1)S(=O)(=O)c1ccc2[nH]c(=O)oc2c1
71	i	0.62	CC(C)(C)NC(=O)CSc1nc2ccccc2n1-c1ccccc1
72	i	-0.44	Nc1ccc(S(=O)(=O)NNC(=O)C(=O)NNc2ccccc2)cc1
73	i	0.44	O=C(COC(=O)CSc1nnc(-c2ccc(Cl)cc2)o1)Nc1cc(Cl)cc(Cl)c1
74	i	0.09	CC(=O)N1CCN=C1SCc1cccc(C(F)(F)F)c1
75	i	0.12	O=C(c1c(F)cccc1F)N1CCN=C1SCc1ccccc1
76	i	-1.5	CCC1CCCCN1C(=O)c1c[nH]c2ccc(S(=O)(=O)N(C)c3ccc(Cl)cc3)cc2c1=O (configuration not stated)
77	i	-0.08	CCOc1ccccc1NC(=O)C(OC(=O)c1ccc(N(C)C)cc1)c1ccccc1 (configuration not stated)
78	i	0.63	Cc1cc(C)c2nc(Cl)c(Cl)nc2c1
79	i	-1.2	Clc1ccc2c(c1)Nc1ccccc1CC2
80	i	3.3	Cc1nc2cc(NS(=O)(=O)c3ccc(Br)cc3)ccc2n1C
81	i	-0.95	CCOC(=O)c1ccc2ncc(-c3ccccc3)nc2c1
82	i	0.06	C=CCc1ccccc1OCC(=O)NNC(=S)NCc1ccccc1
83	i	-0.25	CCCCC1=CC2=C(c3ccco3)C(=O)C(C)(OC(=O)c3ccc(OC)cc3)C(=O)C2=CN1Cc1ccc(OC)cc1 (configuration not stated)
84	i	0.19	Cc1ccc(/C=C(\C#N)C(=O)Nc2c(C)cccc2C)s1
85	i	1.6	C/C(N)=C(/C#N)C(=O)CSc1nncn1-c1ccccc1
86	i	0.97	Cn1c(=O)c(C(=O)COC(=O)c2cc(-c3ccco3)nc3ccccc23)c(N)n(CC2CC2)c1=O
87	i	1.8	O=C(NNc1nc2c(F)cc(F)cc2s1)c1ccccc1
88	i	6.6	Cc1cc(S(=O)(=O)c2cc3ccc(O)c(C)c3oc2=O)ccc1F
89	i	0.02	O=C(CCN1CCN(c2ccccc2F)CC1)Nc1ccc2c(c1)OCO2
90	i	0.1	COc1cccc(-c2nc(CS(=O)(=O)CC(=O)Nc3ccc(C(C)=O)cc3)c(C)o2)c1

# Reprinted from the part before: two entries, then new ones.
item	KCNQ2 block	KCNQ2 block baseline	SMILES
89	i	0.02	O=C(CCN1CCN(c2ccccc2F)CC1)Nc1ccc2c(c1)OCO2
90	i	0.1	COc1cccc(-c2nc(CS(=O)(=O)CC(=O)Nc3ccc(C(C)=O)cc3)c(C)o2)c1
91	i	-0.67	CCCCNC(=O)c1cc2ccccc2s1
92	i	-0.66	CCCC[C@@H]1CCCO[C@@](C(=O)NCc2ccccn2)(C(F)(F)F)C1
93	i	1	CC(c1ccccc1)N1C(=O)CC(Sc2ncccc2C(=O)O)C1=O (configuration not stated)
94	i	0.43	Cc1ccc2nc(C)cc(Nc3ccc([N+](=O)[O-])cc3)c2c1
95	i	-0.24	CC(C)n1c(C(F)(F)F)nc2cc(C(=O)N3CCC(O)CC3)ccc21
96	i	-0.02	COC(=O)/C(C#N)=C/c1occc1C
97	i	1.8	CCCCNC(=O)COc1ccccc1C(=O)c1cc(C#N)c(=O)n(CCOC)c1
98	i	0.01	CCN1C(=O)[C@@H]2Cc3c([nH]c4ccccc34)C(c3ccc(OC)cc3)N2C1=S (some centres not stated)
99	i	2.1	COC(=O)CSc1snnc1-c1ccc(F)cc1
100	-8.6*	0.15*	CCOC(=O)N1CCc2c(sc3c2c(=O)n(Cc2ccccc2)c(=O)n3Cc2cccc(C)c2)C1
101	i	-0.61	COc1ccc(CNS(=O)(=O)c2ccc(-c3cnc(C4CC4)o3)cc2)cc1
102	i	0.13	Nc1nc(-c2ccc(Cl)cc2)nn1C(=O)c1ccco1
103	i	-1.1	O=C(NCc1ccncc1)/C(=C\c1ccc(F)cc1)NC(=O)c1ccccc1
104	i	-0.47	COc1cc(/C=N/Nc2ccc(F)cc2F)cc(OC)c1O
105	i	-2	Cc1ccc(C(=O)CC2(O)C(=O)N(CCc3ccccc3)c3ccc(Br)cc32)o1 (configuration not stated)
106	i	-1.5	COc1cc(C(=O)Nc2nnc(CC(=O)NCc3ccccc3)s2)cc(OC)c1OC
107	i	-1	CCN1CCN(CCCOc2ccc(-c3ccccc3)cc2)CC1
108	i	0.34	Nc1cc(N)nc(SCC(=O)Nc2cc(S(=O)(=O)N3CCOCC3)ccc2Cl)n1
109	i	0.47	O=S(=O)(c1cnccc1N1CCN(/N=C/c2ccc(Cl)cc2)CC1)N1CCCCC1
110	i	0.77	CCCOc1ccc(-c2c(C(=O)N/N=C(\C)COc3ccccc3)nnn2-c2nonc2N)cc1
111	i	0.43	CC1(C(=O)O)CCC(C(=O)NC2CCCCC2)C1(C)C (configuration not stated)
112	i	1.6	Cc1nn2c(Nc3ccccc3)c3c(nc2c1-c1ccccc1)CCC3
113	i	-1.8	COC(=O)CCN1CCN(S(=O)(=O)c2ccccc2Br)CC1
114	i	-1.2	CC1CCN(C(=O)CCCN2C(=O)c3cccnc3Oc3ccc(Cl)cc32)CC1
115	i	-0.23	Cc1ccc(S(=O)(=O)N/N=C/c2ccc(OCC(=O)Nc3ccccc3Cl)cc2)cc1
116	i	-1.1	CN(C)C(=S)Nc1ccc(Br)c(Cl)c1
117	i	-2.1	Cn1cccc1CNC1CCCC1
118	i	0.71	Cc1cc(C)cc(NC(=O)C(OC(=O)c2sccc2C)c2ccccc2)c1 (configuration not stated)
119	i	0.11	CCn1c(O)c(C=NC2CCCC(C)C2C)sc1=S (configuration not stated)
120	i	0.75	CCN1CCC2(CCN(C(=O)c3cc(COc4cc(C)ccc4C)on3)C2)C1 (configuration not stated)
121	i	-1.5	Cc1c(OC(C)C(=O)N2C[C@H]3C[C@@H](C2)c2cccc(=O)n2C3)ccc2c3c(c(=O)oc12)CCCC3 (some centres not stated)
122	i	-1	CCOC(=O)c1ccccc1NC(=O)c1c(O)c2ccccc2n(CC)c1=O

# One compound at a time, as listed above. Order of screens: KCNQ2 block, KCNQ2 block baseline
# Listed for Cc1ccc(S(=O)(=O)N/N=C/c2ccc(OCC(=O)Nc3ccccc3Cl)cc2)cc1 → i, -0.23
# Listed for Cn1cccc1CNC1CCCC1 → i, -2.1

# Assay outcomes from PubChem BioAssay.

# Some of the compounds tested; rates above refer to the full screens.
